Compound activity as filed in PubChem.
Sa growth inh – S. aureus growth inhibition. AID 720641. 170,000 compounds, 0.53% hits. relative growth, % (no concentration beside the values). S. aureus RN4220 growth, OD600, 20 h, 42 °C; hits give low values;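 active = growth at 42 °C up to 50% and 20 or more points under that at 30 °C, or under 10% at both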;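 also: 300 nL library stock went into each well; scaled to the means of positive and negative controls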
GIV-Gai inh – blocks GIV peptide binding to rat Galpha-i3; 210,000 compounds, 0.42% hits; Galpha-i3/FITC-GIV peptide fluorescence polarization, 90 min; hits give low values; scaled: aluminum fluoride 0%, vehicle 100%; percent of control (FP), % (concentration not given with the values); P08753; AID 1224905;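 active = replicate mean at 85% of control or lower, very high polarization wells dropped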;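 also: wells of about 15 µL received 100 nL stock; the first replicate is given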
Target sequence (P08753 whole entry, looked up): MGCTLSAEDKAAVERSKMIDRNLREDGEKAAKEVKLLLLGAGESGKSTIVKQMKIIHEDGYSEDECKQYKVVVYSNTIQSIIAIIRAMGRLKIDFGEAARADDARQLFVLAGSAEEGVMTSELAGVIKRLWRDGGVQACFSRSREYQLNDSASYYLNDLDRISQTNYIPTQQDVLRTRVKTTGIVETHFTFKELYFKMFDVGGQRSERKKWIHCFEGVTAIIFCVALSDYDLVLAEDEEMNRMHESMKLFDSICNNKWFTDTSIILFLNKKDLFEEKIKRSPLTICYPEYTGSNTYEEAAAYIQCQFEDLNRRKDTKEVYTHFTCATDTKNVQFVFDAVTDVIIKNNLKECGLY
HCMV NEC inh – disrupts HCMV UL50-UL53 complex binding; HTRF UL50-UL53 interaction, normalized percent inhibition; inhibition, % (test concentration not listed); 190,000 compounds, 0.15% hits; AID 1918969;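 active = both replicates at 50% or more, plus weaker picks with an unusually low signal ratio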;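 also: stock transfer was 100 nL into about 20 µL; 0% = negative control wells and 100% = wells with untagged competitor protein; inactives centre near -12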
Sa growth inh second temp – also measured in Sa growth inh; calls as there; relative growth, %; measured here: growth at 30 °C;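 optical density after 20 h as mean of two plates; 100% = untreated growth and lower means inhibition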
* = called active by the depositor; . = not tested or not shown.

Second line of a record – Sa growth inh, Sa growth inh second temp, GIV-Gai inh, HCMV NEC inh
- COc1ccc(-c2nnc3c4ccccc4c(C)nn23)cc1S(=O)(=O)NCc1cccnc1
 : 97.4, 80.2, 102.7, 2.7
- CC(=O)N(C)c1nc(-c2ccccc2)cs1
 : 94.5, 104.3, 103.3, 7.4
- CCN(CC)CCNC(=O)CCCN1C(=O)COc2ccc(C)cc21
 : ., ., 103.3, -19.4
- CC1OC(C)C2Cc3ccccc3C2O1 (stereo not given)
 : 110.5, 76.0, 105.3, -1.7
- COc1ccc(C(=O)c2cnc3ccc(F)cc3c2N2CCN(c3ccccc3OC)CC2)cc1
 : 76.2, 38.8, 101.2, -13.2
- CCOC(=O)c1c(C)oc2ccc(N(C(=O)c3ccncc3)S(=O)(=O)c3ccc(CC)cc3)cc12
 : 101.1, 89.8, 102.8, -24.4
- O=S(=O)(Cc1noc(-c2ccccc2Cl)n1)Cc1ccco1
 : 92.7, 81.1, 104.6, -21.9
- Cc1ccc(NC(=O)Cn2cnc3c(oc4ccccc43)c2=O)cc1Cl
 : 115.6, 88.7, 107.3, .
- CC(Sc1nncs1)C(=O)NC(C)c1ccccc1 (stereo not given)
 : 104.6, 97.8, ., -5.9
- CCOc1ccc(-n2c(Cc3cc(=O)[nH]c(=O)[nH]3)nnc2SCC(=O)N2CCCC2)cc1
 : 94.0, 101.6, 105.0, 6.5
- CCCCNC(=O)CSc1c2c(nc3ccc(Cl)cc13)CCCC2
 : 105.6, 96.2, 103.9, -39.4
- COc1ccc(-c2nc(CSCC(=O)NCCC(C)C)c(C)o2)cc1OC
 : 96.2, 92.3, 105.2, -14.3
- Cc1oc2ccc(O)c(CN3CCN(C)CC3)c2c1C(=O)Nc1cccc(C(F)(F)F)c1
 : 112.7, 89.5, 96.6, 3.1
- CC1CCCC(C)N1C(=O)COC(=O)c1c2c(nc3ccccc13)CCCC2 (stereo not given)
 : 86.8, 93.8, ., -22.2
- O=C(CCc1c[nH]c2ccccc12)N1CCC(c2nc(-c3ccc(Cl)cc3)no2)CC1
 : ., ., 96.2, 2.7
- CCOC(=O)c1ccc(NC(=O)Cn2cnc3c(oc4ccccc43)c2=O)cc1
 : 100.9, 94.8, 103.4, -6.1
- CCCC(=O)NCC1(N2CCN(C)CC2)CCCCC1
 : ., ., 102.0, -6.2
- Cc1ccc(NC(=O)Cn2cc(S(=O)(=O)c3ccccc3)c(=O)c3cc4c(cc32)OCO4)cc1
 : 82.0, 95.6, 112.5, 0.6
- COc1ccccc1N1CCN(S(=O)(=O)c2c(C)ccc3nsnc23)CC1
 : 107.3, 84.8, ., -66.2
- CN(C(=S)SCc1ccccc1)c1ccccc1
 : 78.6, 92.6, ., -5.6

An excerpt from above, limited to HCMV NEC inh:
smiles,HCMV NEC inh
COc1ccc(-c2nc(CSCC(=O)NCCC(C)C)c(C)o2)cc1OC,-14.3
CCCC(=O)NCC1(N2CCN(C)CC2)CCCCC1,-6.2
O=C(CCc1c[nH]c2ccccc12)N1CCC(c2nc(-c3ccc(Cl)cc3)no2)CC1,2.7
CCOC(=O)c1ccc(NC(=O)Cn2cnc3c(oc4ccccc43)c2=O)cc1,-6.1
CCCCNC(=O)CSc1c2c(nc3ccc(Cl)cc13)CCCC2,-39.4

Record cards (already shown). Values in the order: Sa growth inh	Sa growth inh second temp	GIV-Gai inh	HCMV NEC inh
Profile of CCOC(=O)c1c(C)oc2ccc(N(C(=O)c3ccncc3)S(=O)(=O)c3ccc(CC)cc3)cc12 = 101.1	89.8	102.8	-24.4
Profile of CCOC(=O)c1ccc(NC(=O)Cn2cnc3c(oc4ccccc43)c2=O)cc1 = 100.9	94.8	103.4	-6.1

(continued)
Second line of a record – Sa growth inh, Sa growth inh second temp, GIV-Gai inh, HCMV NEC inh
- O=C(CCCn1nnc2cc(S(=O)(=O)N3CCCC3)ccc21)NCc1ccccn1
 : ., ., 110.4, -3.2
- CCN(C(=O)c1sc2nc3n(c(=O)c2c1C)CCCCC3)c1ccccc1F
 : 112.1, 105.0, 97.1, 2.0
- COC(=O)c1cnn2c3c(cnc12)CC(C)CC3 (stereo not given)
 : ., ., 112.7, -4.6
- COc1cccc(C2C3=C(CC(c4ccc(O)cc4)CC3=O)Nc3onc(C)c32)c1 (stereo not given)
 : ., ., 104.2, -20.6
- CCOC(=O)C1=C(C)OC(N)=C(C#N)C1c1c(Cl)cccc1Cl (stereo not given)
 : ., ., 99.4, -12.0
- O=C(COC(=O)C1CC1)NCc1ccccc1
 : 105.2, 85.5, ., -22.0
- CCOC(CNC(=O)c1sc2ncnc(N3CCN(c4ccc(OC)cc4)CC3)c2c1C)OCC
 : ., ., 103.0, -29.0
- COc1ccc(N2C(=O)C3SC(N)=C(C#N)C(c4ccco4)C3C2=O)cc1 (stereo not given)
 : 99.1, 73.8, ., -55.6
- CNC(=S)N(CCCn1ccnc1)Cc1c(F)cccc1Cl
 : 111.7, 85.9, ., -16.4
- Cn1c(Cc2cccs2)nnc1SCc1ccc(C(=O)Nc2ccccc2)cc1
 : 120.2, 97.9, ., 19.6

Pulled by compound from the entries so far:
Second line of a record – Sa growth inh, Sa growth inh second temp, GIV-Gai inh, HCMV NEC inh
- COc1ccc(N2C(=O)C3SC(N)=C(C#N)C(c4ccco4)C3C2=O)cc1 (stereo not given)
 : 99.1, 73.8, ., -55.6
- CCOC(CNC(=O)c1sc2ncnc(N3CCN(c4ccc(OC)cc4)CC3)c2c1C)OCC
 : ., ., 103.0, -29.0

Additional records.
Second line of a record – Sa growth inh, Sa growth inh second temp, GIV-Gai inh, HCMV NEC inh
- Cc1ccc(/C=N/N2C(C)CCCC2C)cc1 (stereo not given)
 : 89.8, 97.9, ., -1.3
- O=C(Nc1ccc2c(c1)OCCO2)N1Cc2ccccc2Oc2ncccc21
 : ., ., 103.6, -6.2
- O=C(COc1ccc(F)cc1)NCC(c1ccc(Cl)cc1)N1CCCCC1 (stereo not given)
 : 94.6, 87.4, 107.8, 2.6
- CCOC(=O)N1CC=C2C(C#N)=C(N)C(C#N)(C#N)C(c3ccc(CC)cc3)C2C1 (stereo not given)
 : 86.4, 80.5, 135.8, -16.5
- Cn1c(SC(C#N)Cc2ccccc2)nnc1-c1ccc(C(C)(C)C)cc1 (stereo not given)
 : 75.6, 57.1, ., -15.9
- Cn1cc(S(=O)(=O)N2CCCCC2)cc1C(=O)Nc1ccc(F)cc1F
 : ., ., 104.5, -17.2
- CCOc1ccc(NC(=O)CN2C(=O)/C(=C/c3cc(OC)c(OC)c(OC)c3)SC2=S)cc1
 : ., ., 100.9, -31.8
- CCOCCCNC(=O)NCCc1nc2cccnc2n1-c1ccccc1
 : ., ., 108.3, -12.2
- CCOc1ccc(CNC(=O)c2c(C)nn(-c3ccc(F)cc3)c2-n2cccc2)cc1
 : 112.5, 91.5, 109.7, .
- COc1ccc(NC(=O)CS(=O)(=O)c2ccc3c(c2)S(=O)(=O)N=C(C)N3)c(OC)c1
 : ., ., 104.7, -29.8

(more compounds)
Labels used below: A = Sa growth inh; B = Sa growth inh second temp; C = GIV-Gai inh; D = HCMV NEC inh
Cc1ccc(CNC(=O)c2ccc(N3C(=O)CCS3(=O)=O)cc2)cc1
  A: .; B: .; C: 102.5; D: -12.1
O=C(CCn1c(=O)c2cccn2c2ccc(F)cc21)NCc1ccccc1
  A: 85.7; B: 71.6; C: 102.7; D: -7.0
O=C(O)c1n[nH]c2c1CCCCC2
  A: 96.2; B: 76.6; C: 98.4; D: 0.4
CCCc1cc(N2CCN(c3ccccc3)CC2)n2c(nc3ccccc32)c1C#N
  A: 100.5; B: 91.2; C: 101.3; D: .
CCOC(=O)N1CCC(N2C(=O)c3ccc(C(=O)O)cc3C2=O)CC1
  A: 114.5; B: 86.2; C: 102.7; D: .
CC(C)CC(=O)Nc1c(C(=O)N2CCN(c3ccccc3)CC2)oc2ccccc12
  A: 45.7; B: 28.5; C: 103.6; D: -2.7
O=C(OCC1CC(c2ccccc2)=NO1)c1ccc(Cl)cc1 (stereo not given)
  A: 90.3; B: 92.5; C: 100.3; D: .
O=c1c2cnc(NCc3cccnc3)nc2ccn1Cc1cccnc1
  A: 92.5; B: 85.4; C: 104.7; D: -23.9
CCc1ccc(NC(=O)CCCN2C(=O)C(c3ccccc3)Oc3cccnc32)cc1 (stereo not given)
  A: .; B: .; C: 98.9; D: -78.1
CCN/C(C)=C/c1nsc(Nc2ccc(Cl)c(Cl)c2)n1
  A: 113.7; B: 73.9; C: 105.6; D: .
C/C(CCc1ccc2c(c1)OCO2)=N\N1C(=N)SC(C(=O)Nc2ccc(C(=O)O)cc2)CC1=O (stereo not given)
  A: 104.2; B: 88.1; C: .; D: -0.9
O=C1CCCN1CC1CCCNC1 (stereo not given)
  A: 101.3; B: 83.3; C: 94.5; D: -17.6
COc1cccc2cc(C(=O)NCCc3c(C)[nH]c4ccc(OC(F)(F)F)cc34)c(=O)oc12
  A: 96.4; B: 89.7; C: .; D: -2.5
CN(C(=O)Cn1ncc2c1-c1ccccc1OC2)c1ccccc1F
  A: 96.5; B: 82.8; C: 98.8; D: 2.6

7 entries from above, sorted by the value under Sa growth inh second temp, low to high:
| canonical_smiles | Sa growth inh second temp | GIV-Gai inh |
| --- | --- | --- |
| O=C(CCn1c(=O)c2cccn2c2ccc(F)cc21)NCc1ccccc1 | 71.6 | 102.7 |
| O=C(O)c1n[nH]c2c1CCCCC2 | 76.6 | 98.4 |
| CN(C(=O)Cn1ncc2c1-c1ccccc1OC2)c1ccccc1F | 82.8 | 98.8 |
| O=c1c2cnc(NCc3cccnc3)nc2ccn1Cc1cccnc1 | 85.4 | 104.7 |
| CCOC(=O)N1CCC(N2C(=O)c3ccc(C(=O)O)cc3C2=O)CC1 | 86.2 | 102.7 |
| C/C(CCc1ccc2c(c1)OCO2)=N\N1C(=N)SC(C(=O)Nc2ccc(C(=O)O)cc2)CC1=O (stereo not given) | 88.1 | . |
| O=C(OCC1CC(c2ccccc2)=NO1)c1ccc(Cl)cc1 (stereo not given) | 92.5 | 100.3 |

Hits appear at their usual frequency; 0.83% or so of the library scored in one or more.
